# Screens as filed in PubChem.
# HPDE-C7K KRASV12: cytotoxicity in KRAS-transformed pancreatic duct cells, primary screen, cell-based, fluorescence, HTS (AID 431); HPDE-C7K KRASV12 cells, Alamar Blue viability, 48 h; higher % means a stronger effect; one-dose cytotoxicity, % at 10 µM; EC50 in µM for titrated hits; hit rate 1.7% among 63,000;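 active means compounds whose percent cytotoxicity in the single-dose primary screen, scaled between solvent and toxic-drug controls, exceeds 50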;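 further: 0% = DMSO solvent wells and 100% = doxorubicin-treated wells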
# Bfl-1 displacement: Bfl-1 inhibitors, primary screen, biochemical, fluorescence polarization, FITC-Bid, mouse (AID 432); Bcl-2-related protein A1 (Mus musculus); FITC-Bid BH3 peptide fluorescence polarization displacement; higher % means a stronger effect; displacement, % at 20 µM; hits with a dose series show IC50 in µM; hit rate 0.02% among 64,000; in the data active means a potency from the dose series; inactive means the rest, 99 in 100 with displacement below about 15%; further: strong numbers were not always called active
# HPDE-C7 viability: cytotoxicity in HPDE-C7 cells, cell-based, fluorescence, HTS (AID 430); HPDE-C7 pancreatic duct cells viability, fluorescence; higher % means a stronger effect; cytotoxicity, % at 10 µM, or EC50 in µM where a hit was titrated; hit rate 1.8% among 63,000;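 further: cells exposed to compound for 48 hours before viability readout; 0% = vehicle and 100% = reference cytotoxic drug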
# LYP inhibition: LYP phosphatase inhibitors, primary screen, biochemical, DiFMUP fluorescence, recombinant catalytic domain, 10 µM (AID 606) | Tyrosine-protein phosphatase non-receptor type 22 (Homo sapiens) | recombinant LYP catalytic domain, DiFMUP fluorescence; higher % means a stronger effect | one-dose inhibition, % at 10 µM; IC50 in µM for titrated hits | 52,000 tested, under 10 active;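 active means IC50 under 40 µM in the dose-response test; inactive means IC50 of 40 µM or more, or never dose-tested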
# TNAP inhibition: human TNAP enzyme inhibitors, biochemical, luminescent (AID 518); Alkaline phosphatase, tissue-nonspecific isozyme (Homo sapiens); purified TNAP enzyme, luminescent substrate readout; higher % means a stronger effect; inhibition, % at 20 µM; hits with a dose series show IC50 in µM; hit rate 0.09% among 64,000; in the data active means a potency from the dose series; inactive means the rest, 99 in 100 with inhibition below about 22%;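 further: plate controls were vehicle for no effect and reference inhibitor for full effect; many of its hits are not listed in these tables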
# HT1080 cytotoxicity: cytotoxicity in HT1080 fibrosarcoma cells, cell-based, fluorescence readout (AID 620). HT1080 viability, fluorescence; higher % means a stronger effect. cytotoxicity, % at 10 µM, or EC50 in µM where a hit was titrated. hit rate 0.42% among 87,000;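 further: cells exposed to compound overnight then 4 h with Alamar Blue; 0% = vehicle DMSO and 100% = killing control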
# An asterisk follows results filed as active; · = no result given. Unless noted, no stated cut-off is given here; in the data, active means cytotoxicity above about 50%; inactive means the rest. A portion of the library (hit frequency here may not be typical).
# Field names – A = HPDE-C7K KRASV12; B = Bfl-1 displacement; C = HPDE-C7 viability; D = LYP inhibition; E = TNAP inhibition; F = HT1080 cytotoxicity
1	CCCC(C(=O)c1ccccc1)n1cncn1 (stereo not drawn)
  A: · | B: 2% | C: · | D: 0% | E: 8% | F: -6%

2	COc1cc(OC)c(Nc2cc(C)nc3nc(C)nn23)cc1Cl
  A: 2% | B: -5% | C: 3% | D: 1% | E: -4% | F: -4%

3	O=C(NCCN1CCN(c2ccccc2)CC1)C1CCN(S(=O)(=O)c2cccs2)CC1
  A: 11% | B: -3% | C: -6% | D: 4% | E: 8% | F: 11%

4	CC1(C)CC(=O)C(C=NCCN2CCN(CCc3ccccc3)CC2)=C(O)C1
  A: 5% | B: 0% | C: 2% | D: · | E: 8% | F: -20%

5	CCCCNC(=O)CC1N=C2c3ccccc3N=C(SCC(=O)Nc3ccccc3C)N2C1=O (stereo not drawn)
  A: -14% | B: 2% | C: -24% | D: 15% | E: 5% | F: ·

6	COc1ccc(-c2cnc(SCC(=O)Nc3ccc4c(c3)OCO4)n2Cc2ccco2)cc1
  A: 19% | B: -3% | C: 5% | D: · | E: -1% | F: -10%

7	COc1cc(C2C(C(=O)c3ccco3)=C(O)C(=O)N2Cc2cccnc2)cc(OC)c1OC (stereo not drawn)
  A: -6% | B: -3% | C: -12% | D: 20% | E: 5% | F: 9%

8	Cc1oc2c(CN(C)C)c(O)ccc2c(=O)c1-c1cscn1
  A: 6% | B: 7% | C: 5% | D: 1% | E: 11% | F: 19%

9	CCC1Oc2ccc(C)cc2N(CC(=O)NCc2ccccc2OC)C1=O (stereo not drawn)
  A: -9% | B: -5% | C: -11% | D: 8% | E: -5% | F: -3%

10	COC(=O)c1cc(Br)c(=O)n(CCN2CCOCC2)c1
  A: -2% | B: -6% | C: 0% | D: -3% | E: 3% | F: 3%

11	O=C(CSc1nnc(-c2ccc(O)cc2)o1)N1CCOCC1
  A: -12% | B: 4% | C: -6% | D: 10% | E: 8% | F: 9%

12	C=C(C)Cn1c(CCNC(=O)C(C)(C)C)nc2ccccc21
  A: -8% | B: -1% | C: -5% | D: -8% | E: 11% | F: 0%

13	CCOc1ccc2nc(SCC#N)c(C#N)cc2c1
  A: -10% | B: 1% | C: -17% | D: 3% | E: 6% | F: 6%

14	CC(C)CC(c1nnnn1C(C)C)N1CCN(c2cccc(Cl)c2)CC1 (stereo not drawn)
  A: 22% | B: -1% | C: 10% | D: 7% | E: 8% | F: -3%

15	CCC(=O)N(Cc1cc(=O)[nH]c2ccccc12)c1cccc(C)c1
  A: 10% | B: -2% | C: 5% | D: -5% | E: 5% | F: -2%

16	C#CCn1c(=NC(=O)c2cccs2)sc2cccc(OC)c21
  A: 1% | B: -4% | C: 7% | D: -5% | E: 9% | F: -1%

17	CCCNC(=O)c1cc(-c2ccco2)on1
  A: 0% | B: 4% | C: -2% | D: 10% | E: 6% | F: 3%

18	COc1ccc(-c2nc(NC(=O)c3cc(C(C)(C)C)nn3C)sc2C)cc1
  A: 22% | B: -3% | C: 23% | D: 4% | E: 10% | F: 2%

19	Cc1ccccc1NS(=O)(=O)c1ccc(F)cc1
  A: 12% | B: 5% | C: -8% | D: 19% | E: 5% | F: 6%

20	Cn1c(N2CCOCC2)nc(-c2ccccc2)c1-c1ccccc1
  A: 13% | B: -9% | C: 7% | D: · | E: 4% | F: -1%

# Remaining list, next part.
# Below each SMILES – HPDE-C7K KRASV12 | Bfl-1 displacement | HPDE-C7 viability | LYP inhibition | TNAP inhibition | HT1080 cytotoxicity
21. O=C(COc1ccc2ccccc2c1)N1CCCC1
  -5% | -14% | -33% | 18% | 13% | 7%
22. O=C(NCc1ccccc1)c1cc(S(=O)(=O)N2CCOCC2)ccc1F
  · | -8% | · | 2% | 5% | -4%
23. Cc1ccccc1NC(=O)Nc1cccs1
  -14% | -8% | -6% | 4% | 9% | 17%
24. COc1ccccc1CNC(=O)Nc1cccs1
  10% | 2% | 4% | 10% | 21% | -14%
25. c1ccc(OCCN2C3=NCCN3c3ccccc32)cc1
  -13% | -2% | -7% | 8% | 12% | -4%
26. Cc1ccc(CNC(=O)C2CNc3cc(C)ccc3O2)cc1 (stereo not drawn)
  1% | -1% | -3% | 1% | 13% | 2%
27. CCc1nnc(SCc2cn3c(C)cc(C)nc3n2)n1N
  3% | 5% | 4% | 0% | -3% | -2%
28. O=C(Cc1cccs1)OCC(=O)c1ccco1
  -8% | -9% | -1% | 5% | 8% | -4%
29. Cc1cc(C)n2c(SCCN3C(=O)c4ccccc4C3=O)nnc2n1
  7% | 0% | 2% | -5% | 11% | 3%
30. COc1ccc(S(=O)(=O)NC(C)C(=O)Nc2ccccc2F)cc1 (stereo not drawn)
  1% | 6% | 0% | 11% | 5% | -1%
31. O=C(Nc1ccccc1Sc1ccccc1)C1CCCO1 (stereo not drawn)
  -14% | -1% | -7% | 5% | 7% | ·
32. CCOC(=O)c1ccc(-n2c(=O)[nH]c3ccccc3c2=O)cc1
  3% | -4% | -12% | 6% | 13% | 3%
33. O=C(c1cnccn1)N(c1ccccc1)C1(C(=O)NC2CCCCC2)CCCCC1
  4% | -3% | -3% | · | 4% | -2%
34. Cc1cc(C(=O)Nc2cccnc2)on1
  -12% | 6% | -8% | 11% | -1% | 0%
35. Cc1ccc(CN2CCN(C(=O)C3CCC3)CC2)cc1
  5% | -12% | -16% | · | 6% | 0%
36. CN1C(=O)c2ccccc2C(C(=O)NCc2ccco2)C1c1c[nH]c2ccccc12 (stereo not drawn)
  -8% | -1% | -9% | 7% | 9% | ·
37. Cc1c(C(=O)NCC(C)C)sc2nc(-c3ccc(F)cc3)cn12
  -23% | 2% | -20% | 6% | -4% | 4%
38. COc1ccc(NC(=O)COc2nc(N(C)C)nc(N(C)C)n2)cc1
  4% | 0% | 1% | -9% | 7% | -2%
39. CC(=O)Nc1ccc(NC2=CC(=O)CC(C)(C)C2)cc1
  -3% | -7% | -8% | -2% | 8% | 4%
40. COc1cc(NC(=O)C2CCCN2C(=O)OCc2ccccc2)cc(OC)c1 (stereo not drawn)
  · | · | · | 8% | · | 11%
41. Cc1cc2cc(CN(CCN3CCOCC3)C(=O)Nc3ccccc3F)c(=O)[nH]c2cc1C
  -2% | 1% | 0% | 3% | 12% | 6%
42. COC(=O)c1cccc(S(=O)(=O)N2CCN(c3nc4ccccc4s3)CC2)c1
  0% | -3% | -5% | -29% | 8% | 4%
43. CCOC(=O)N1CCN(Cc2nc3c(c(=O)n(C)c(=O)n3C)n2Cc2cccc3ccccc23)CC1
  · | · | · | 7% | · | -1%
44. COC(=O)c1nc(-c2ccccc2)n[nH]1
  · | -4% | · | -8% | 7% | 8%
45. O=C(CSCCNS(=O)(=O)c1ccccc1)Nc1ccccc1
  -24% | 1% | -16% | 7% | 9% | -7%
46. CC1=CC(C)(C)Nc2ccc(OC(=O)CN3C(=O)CCC3=O)cc21
  8.8µM* | 0% | 7.5µM* | 7% | 5% | ·
47. Cc1ccc(CNC(=O)C2CC(=O)OC23CCCC3)c(C)c1 (stereo not drawn)
  -22% | 15% | -47% | -60% | 6% | 4%
48. CCCN1C(=O)c2ccc(C(=O)NC3=NCCS3)cc2C1=O
  0% | -8% | -3% | 9% | 5% | 4%
49. O=S(=O)(NCCc1ccncc1)c1ccc(S(=O)(=O)N2CCCCCC2)cc1
  -10% | 1% | -9% | · | 3% | -11%
50. CC1(C(=O)O)Sc2[nH]c(=O)sc2C2c3ccccc3OC(=O)C21 (stereo not drawn)
  -10% | -8% | -1% | 10% | 11% | -9%
51. CCOC(=O)c1ccc2nc(C)c3c(c2c1)OC(C)C3 (stereo not drawn)
  4% | -2% | 1% | -2% | 18% | -4%
52. O=C(CN1CCOCC1)Nc1ncccn1
  -16% | 2% | -17% | · | 9% | ·

# Part of the list above, with tabs:
cpd	SMILES	HPDE-C7K KRASV12	Bfl-1 displacement	HPDE-C7 viability	LYP inhibition	TNAP inhibition	HT1080 cytotoxicity
31	O=C(Nc1ccccc1Sc1ccccc1)C1CCCO1 (stereo not drawn)	-14%	-1%	-7%	5%	7%	·
32	CCOC(=O)c1ccc(-n2c(=O)[nH]c3ccccc3c2=O)cc1	3%	-4%	-12%	6%	13%	3%
33	O=C(c1cnccn1)N(c1ccccc1)C1(C(=O)NC2CCCCC2)CCCCC1	4%	-3%	-3%	·	4%	-2%
34	Cc1cc(C(=O)Nc2cccnc2)on1	-12%	6%	-8%	11%	-1%	0%
35	Cc1ccc(CN2CCN(C(=O)C3CCC3)CC2)cc1	5%	-12%	-16%	·	6%	0%
36	CN1C(=O)c2ccccc2C(C(=O)NCc2ccco2)C1c1c[nH]c2ccccc12 (stereo not drawn)	-8%	-1%	-9%	7%	9%	·
37	Cc1c(C(=O)NCC(C)C)sc2nc(-c3ccc(F)cc3)cn12	-23%	2%	-20%	6%	-4%	4%
38	COc1ccc(NC(=O)COc2nc(N(C)C)nc(N(C)C)n2)cc1	4%	0%	1%	-9%	7%	-2%
39	CC(=O)Nc1ccc(NC2=CC(=O)CC(C)(C)C2)cc1	-3%	-7%	-8%	-2%	8%	4%
40	COc1cc(NC(=O)C2CCCN2C(=O)OCc2ccccc2)cc(OC)c1 (stereo not drawn)	·	·	·	8%	·	11%
41	Cc1cc2cc(CN(CCN3CCOCC3)C(=O)Nc3ccccc3F)c(=O)[nH]c2cc1C	-2%	1%	0%	3%	12%	6%
42	COC(=O)c1cccc(S(=O)(=O)N2CCN(c3nc4ccccc4s3)CC2)c1	0%	-3%	-5%	-29%	8%	4%
43	CCOC(=O)N1CCN(Cc2nc3c(c(=O)n(C)c(=O)n3C)n2Cc2cccc3ccccc23)CC1	·	·	·	7%	·	-1%
44	COC(=O)c1nc(-c2ccccc2)n[nH]1	·	-4%	·	-8%	7%	8%
45	O=C(CSCCNS(=O)(=O)c1ccccc1)Nc1ccccc1	-24%	1%	-16%	7%	9%	-7%
46	CC1=CC(C)(C)Nc2ccc(OC(=O)CN3C(=O)CCC3=O)cc21	8.8µM*	0%	7.5µM*	7%	5%	·
47	Cc1ccc(CNC(=O)C2CC(=O)OC23CCCC3)c(C)c1 (stereo not drawn)	-22%	15%	-47%	-60%	6%	4%

# Some values from the results shown.
# Under HPDE-C7K KRASV12, `CC(=O)Nc1ccc(NC2=CC(=O)CC(C)(C)C2)cc1` reads -3%
# Under TNAP inhibition, `CCc1nnc(SCc2cn3c(C)cc(C)nc3n2)n1N` reads -3%
